Source: PubChem BioAssay (Broad Institute)
rRNA inh HTS = reduced GFP signal of wild-type E. coli, primary screen, bacterial rRNA inhibitor project, GFP/RFP fluorescence, OD600, single point; E. coli WT GFP vs humanized-ribosome RFP mutants, 24 h; hits give low values; DMSO median 0, no signal -100; GFP signal change (wild-type ribosome), % (concentration not given with the values); hit rate 1.6% among 350,000; AID 720706, 2013;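 active = significant combined selectivity score with lowered wild-type GFP, culture density cut under 30%, mutant RFP and density less affected; inactive = any of these conditions unmet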; note: one replicate is shown; some compounds called inactive have numbers as strong as hits
rRNA inh HTS OD600 = further read-out of rRNA inh HTS, marked with its call; OD600 change, %; measured here: OD600 growth;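 optical density of the mix in the first replicate; 0 = DMSO median and -100 = no signal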
rRNA inh HTS RFP = also measured in rRNA inh HTS; calls as there; RFP signal change, %; measured here: RFP humanized mutant strains;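 first replicate; 0 = DMSO median and -100 = no signal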
An asterisk follows results filed as active. Some of the compounds tested; count on the stated rates, not on these rows.

rRNA inh HTS	rRNA inh HTS OD600	rRNA inh HTS RFP	molecule
1.4	6.8	0.0	CO[C@H]1CN(C)C(=O)c2cc(NC(=O)c3ccc(F)cc3)ccc2OC[C@@H](C)N(C(=O)CN(C)C)C[C@@H]1C
0.8	7.1	0.0	CO[C@@H]1CN(C)C(=O)c2cc(NC(=O)c3ccc(F)cc3)ccc2OC[C@@H](C)N(C(=O)CC2CC2)C[C@H]1C
-1.3	-17.3	1.5	CC(=O)NC[C@@H]1[C@H](c2ccc(C3=CCCCC3)cc2)[C@H](CO)N1C(=O)NC(C)C
0.6	3.4	-2.3	CO[C@H]1CN(C)C(=O)c2cc(NC(=O)c3cc(C)on3)ccc2OC[C@H](C)NC[C@@H]1C
-0.7	-2.5	-0.8	COc1ccccc1-c1cnc2c(c1)C(=O)N([C@H](C)CO)C[C@H](C)[C@H](CN(C)CC1CC1)O2
-0.1	-1.3	-1.5	CO[C@H]1CN(C)C(=O)c2ccc(NC(=O)c3ccc(F)cc3)cc2OC[C@H](C)N(C(=O)CN(C)C)C[C@@H]1C
-2.0	-6.6	3.9	C[C@H](CO)N1C[C@H](C)[C@H](CN(C)S(=O)(=O)c2ccc(F)cc2)Oc2ncc(-c3ccccc3)cc2C1=O
-5.1	-5.9	7.2	COc1cccc(S(=O)(=O)Nc2ccc3c(c2)OC[C@H](C)N(Cc2ccccc2F)C[C@@H](C)[C@@H](OC)CN(C)C3=O)c1
-1.1	1.5	-1.7	Cc1noc(C)c1S(=O)(=O)Nc1ccc2c(c1)C(=O)N([C@@H](C)CO)C[C@H](C)[C@H](CN(C)S(=O)(=O)c1c(C)noc1C)O2
8.1	7.8	-3.8	C[C@@H]1CN([C@@H](C)CO)C(=O)c2cc(C3=CCCCC3)cnc2O[C@H]1CN(C)S(C)(=O)=O
1.5	1.2	0.8	CC(=O)N(C)C[C@@H]1Oc2cc(C3=CCCCC3)ccc2S(=O)(=O)N([C@@H](C)CO)C[C@@H]1C
0.8	3.2	-2.1	C[C@H](CO)N1C[C@H](C)[C@@H](CN(C)C(=O)C2CC2)Oc2ncc(C#CC3(O)CCCC3)cc2C1=O
0.5	1.4	-0.1	C[C@H]1CN([C@@H](C)CO)C(=O)c2cc(NC(=O)C3CCCCC3)ccc2O[C@@H]1CN(C)Cc1ccc(Oc2ccccc2)cc1
0.6	4.2	-2.1	CC(=O)NC[C@@H]1[C@H](c2ccccc2)[C@H](CO)N1C(=O)Cc1ccncc1
-4.2	-4.3	1.2	CN(C)C(=O)c1ccc(-c2ccc(C3[C@@H]4CN(S(=O)(=O)c5cccc(Cl)c5)C[C@H]3N4)cc2)cc1 (some centres undefined)
0.6	4.3	-1.6	C[C@H]1CN([C@@H](C)CO)C(=O)Cc2cc(NS(=O)(=O)c3ccc(F)cc3)ccc2O[C@H]1CN(C)C(=O)Nc1ccc2c(c1)OCO2
1.5	8.2	-1.9	COc1ccc(CN(C)C[C@H]2Oc3ccc(NC(=O)Nc4c(C)noc4C)cc3C(=O)N([C@H](C)CO)C[C@@H]2C)cc1
2.7	11.4	-3.1	CC(C)NC(=O)N(C)C[C@H]1OCc2ccccc2-c2ccccc2C(=O)N([C@H](C)CO)C[C@@H]1C
-2.8	5.0	-4.9	O=C(c1cnccn1)N1CC[C@H]2[C@H](CO)Nc3ccc(-c4ccccc4F)cc3[C@H]21
0.4	5.9	4.9	CC(=O)N1[C@H](CO)[C@H](c2ccc(C3=CCCC3)cc2)[C@H]1CNC(=O)CN(C)C
-7.7	-19.3	0.1	COc1ccc([C@@H]2CC=CC[C@@H](C)Oc3ccccc3C(=O)N(C)[C@@H](C(C)C)C(=O)N2)c(OC)c1 (mixture of isomers)
1.9	11.7	0.7	CCS(=O)(=O)N1CC(=O)N2[C@H](C1)[C@H](c1ccc(C#Cc3cccc(F)c3)cc1)[C@@H]2CO
4.5	10.7	2.0	COc1ccc(S(=O)(=O)N(C)C[C@H]2Oc3ccc(NC(=O)NC(C)C)cc3C(=O)N([C@@H](C)CO)C[C@@H]2C)cc1
3.8	9.5	1.7	CCC(=O)N1[C@@H](CO)[C@@H](c2ccc(C3=CCCC3)cc2)[C@@H]1CNC(=O)CN(C)C
-31.6	-61.0	13.2	CCCC#Cc1cnc2c(c1)C(=O)N([C@@H](C)CO)C[C@H](C)[C@@H](CN(C)Cc1ccccc1F)O2
-19.0	-38.6	11.6	CC(C)[C@@H]1C(=O)N[C@H](c2ccc3c(c2)OCO3)CC=CC[C@@H](C)Oc2ccccc2C(=O)N1C (mixture of isomers)
1.0	2.9	-1.5	CCCNC(=O)Nc1ccc2c(c1)C(=O)N(C)C[C@H](OC)[C@H](C)CN(CC1CCCC1)[C@@H](C)CO2
-0.2	6.1	-0.6	CCCNC(=O)Nc1ccc2c(c1)C(=O)N(C)C[C@H](OC)[C@H](C)CN(Cc1ccccn1)[C@@H](C)CO2
-3.8	8.7	-1.1	C[C@@H]1CCCCO[C@@H](CN(C)C)[C@H](C)CN([C@@H](C)CO)C(=O)c2cc(NC(=O)Nc3ccc(F)cc3)ccc2O1
-0.4	4.5	-1.3	C[C@H]1CN([C@@H](C)CO)C(=O)c2ccccc2-c2ccccc2CO[C@@H]1CN(C)C(=O)CCC(F)(F)F
-1.7	-0.3	1.0	COc1ccc(S(=O)(=O)N(C)C[C@H]2OCCCC[C@H](C)Oc3ccc(NS(=O)(=O)c4ccc(Cl)cc4)cc3C(=O)N([C@@H](C)CO)C[C@H]2C)cc1
-1.8	3.8	0.7	C[C@@H]1CN(C)C(=O)c2cc(NS(C)(=O)=O)ccc2O[C@H]1CN(C)S(C)(=O)=O
-15.6*	5.4*	5.3*	Cc1nn(C)cc1NC(=O)C[C@@H]1CC[C@@H]2[C@@H](COc3ccc(NC(=O)C4CCC4)cc3C(=O)N2C)O1
-2.2	-15.7	19.2	C[C@@H]1CN([C@@H](C)CO)C(=O)c2cc(-c3cccc(F)c3)cnc2O[C@H]1CN(C)Cc1cccc(F)c1
-0.7	8.4	1.9	COc1ccc2c3c([nH]c2c1)[C@@H](CO)NCC31CCN(Cc2ccc(F)cc2)CC1
1.5	3.0	-1.7	CCC(=O)N1[C@H](CO)[C@H](c2ccc(-c3cccnc3)cc2)[C@@H]1CN(C)C(C)=O
-1.3	-7.3	-0.4	CCCN1C[C@H](C)[C@H](OC)CN(C)C(=O)c2cc(NC(=O)Nc3cccc(OC)c3)ccc2OC[C@@H]1C
2.1	7.0	-2.3	CCCNC(=O)NC[C@H]1[C@H](c2ccc(C3=CCCC3)cc2)[C@@H](CO)N1C(C)=O
4.9	2.9	5.4	O=S(=O)(c1ccc(-c2ccccc2)cc1)N1[C@@H]2CNC[C@H]1C2c1ccc(-c2ccccc2)cc1 (some centres undefined)
-2.2	-4.5	2.5	C[C@@H]1CCCCO[C@@H](CN(C)C(=O)c2ccccc2)[C@H](C)CN([C@@H](C)CO)C(=O)c2cc(NC(=O)c3ccncc3)ccc2O1
2.7	-2.3	2.1	C[C@@H]1CN([C@@H](C)CO)S(=O)(=O)c2ccc(-c3ccccc3)cc2O[C@@H]1CN(C)C(=O)C1CCC1
3.9	19.2	-4.3	C/C=C/c1cnc2c(c1)C(=O)N([C@@H](C)CO)C[C@H](C)[C@H](CN(C)C(=O)C1CCC1)O2
-0.2	8.0	-2.6	O=C1N[C@H](c2ccccc2)COCc2cn(nn2)CC[C@@H]1Cc1ccc(Cl)cc1
2.2	-3.5	0.7	C/C=C/c1ccc([C@H]2[C@@H](CO)N(CC3CC3)[C@H]2CNS(C)(=O)=O)cc1
2.0	3.9	-2.0	CC(=O)Nc1cccc2c1O[C@@H](CN(C)C(=O)NC(C)C)[C@@H](C)CN(C)C2=O
4.6	1.0	0.2	C[C@@H]1CN([C@@H](C)CO)C(=O)c2cccc(NS(C)(=O)=O)c2O[C@@H]1CN(C)Cc1ccc(C(F)(F)F)cc1
-2.8	2.9	1.1	CS(=O)(=O)N1CCCCN2[C@H](CO)[C@H](c3ccc(-c4cccc(C#N)c4)cc3)[C@H]2C1
-1.5	-4.6	-1.6	C[C@H](CO)N1C[C@H](C)[C@@H](CN(C)Cc2cncnc2)Oc2cc(C#CC3CC3)ccc2S1(=O)=O
-2.3	2.4	-3.7	COCC(=O)NC[C@H]1[C@@H](c2ccc(C3=CCCC3)cc2)[C@@H](CO)N1C(=O)C1CC1
-0.6	-7.3	9.5	CNC[C@@H]1Oc2cc(-c3ccccc3F)ccc2S(=O)(=O)N([C@@H](C)CO)C[C@@H]1C
-2.4	-3.0	5.8	C[C@H]1CN([C@@H](C)CO)S(=O)(=O)c2ccc(C#CC3CC3)cc2O[C@H]1CN(C)C(=O)C1CCCCC1
-4.4	-5.0	5.3	CC(C)CC#Cc1ccc2c(c1)O[C@H](CN(C)Cc1ccccc1)[C@@H](C)CN([C@@H](C)CO)S2(=O)=O
-1.3	5.2	-4.9	O=C1N[C@@H](c2ccccc2)COCc2cn(nn2)CC[C@H]1Cc1cccc(Cl)c1
0.2	0.9	0.7	C[C@H]1CN(C)C(=O)Cc2cc(N)ccc2O[C@@H]1CN(C)C(=O)OC(C)(C)C
0.2	1.4	0.7	COc1ccc(S(=O)(=O)N[C@@H]2CC[C@@H](CCNC(=O)Cc3ccccn3)O[C@@H]2CO)cc1
2.9	0.5	-0.5	O=C(Nc1ccccc1)[C@H]1[C@H](CO)[C@H]2Cn3c(cccc3=O)[C@H]2N1CC1CCOCC1
-4.7	-5.2	1.3	CCCN1C[C@H](C)[C@@H](OC)CN(C)C(=O)c2cc(NC(=O)c3cccc(OC)c3)ccc2OC[C@@H]1C
0.2	0.9	0.2	COc1ccc(S(=O)(=O)Nc2ccc3c(c2)C(=O)N([C@@H](C)CO)C[C@H](C)[C@@H](CN(C)C(=O)Nc2ccc4c(c2)OCO4)O3)cc1
-3.6	-15.7	11.9	C[C@H](CO)N1C[C@H](C)[C@@H](CN(C)Cc2ccccc2)Oc2c(NC(=O)Cc3cn(C)c4ccccc34)cccc2C1=O
-3.3	-6.1	0.0	C/C=C/c1ccc([C@H]2[C@H](CO)N(C(=O)CC)[C@H]2CNC(=O)CC2CC2)cc1

(further entries)
rRNA inh HTS	rRNA inh HTS OD600	rRNA inh HTS RFP	molecule
-4.7	-10.7	0.4	CCC(=O)N(C)C[C@@H]1[C@H](c2ccc(C3=CCCCC3)cc2)[C@H](CO)N1C(=O)CC
-6.2	-2.8	-2.5	CC(C)NC(=O)Nc1ccc2c(c1)C(=O)N([C@@H](C)CO)C[C@H](C)[C@@H](CN(C)C(=O)CCC(F)(F)F)OCCCC[C@@H](C)O2
-0.6	-3.5	2.6	C[C@@H]1CN([C@H](C)CO)C(=O)c2c(c3ccccc3n2C)-c2ccccc2CO[C@H]1CN(C)C(=O)Nc1ccc(F)cc1
6.1	-0.9	7.4	COc1ccc2c3c([nH]c2c1)[C@@H](CO)N(Cc1ccc(Cl)cc1)CC31CCN(C(=O)CN(C)C)CC1
6.6	4.2	-3.8	CC[C@@H]1C/C=C\C[C@@H](c2ccccc2)NC(=O)CCC(=O)N1
0.3	0.0	-0.3	CCCNC(=O)Nc1ccc2c(c1)C(=O)N(C)C[C@@H](OC)[C@@H](C)CN(C(=O)CC)[C@@H](C)CO2
-0.5	5.2	-3.0	CC(C)NC(=O)Nc1ccc2c(c1)C(=O)N([C@H](C)CO)C[C@@H](C)[C@H](CN(C)Cc1ccccc1)OCCCC[C@H](C)O2
-48.6	-56.2	-2.0	COc1ccc(S(=O)(=O)N2CCCCN3[C@@H](CO)[C@@H](c4ccc(C#CCC(C)C)cc4)[C@@H]3C2)cc1
1.5	-3.9	1.2	CCCNC(=O)N1C[C@H](C)[C@H](OC)CN(C)C(=O)c2ccc(NS(=O)(=O)CC(F)(F)F)cc2OC[C@H]1C
3.4	4.0	-2.6	C[C@@H]1CN([C@H](C)CO)C(=O)c2cc(NS(=O)(=O)c3cn(C)cn3)ccc2O[C@@H]1CN(C)S(=O)(=O)c1cn(C)cn1
0.2	-10.2	-0.5	CCC(=O)N1C[C@@H](C)[C@@H](OC)CN(C)C(=O)c2ccc(NC(=O)C3CCOCC3)cc2OC[C@H]1C
-0.6	2.8	-0.3	CCCNC(=O)Nc1ccc2c(c1)C(=O)N(C)C[C@@H](OC)[C@H](C)CN(CCC(F)(F)F)[C@@H](C)CO2
1.4	0.0	5.6	C[C@@H]1CN([C@@H](C)CO)C(=O)Cc2cc(NS(=O)(=O)c3ccc(F)cc3)ccc2O[C@H]1CN(C)Cc1ccc(Cl)c(Cl)c1
-1.4	-3.2	-1.5	CO[C@H]1CN(C)C(=O)c2cc(NS(C)(=O)=O)ccc2OC[C@H](C)N(Cc2ccccn2)C[C@H]1C

Entries of single compounds as entered above:
CC(C)NC(=O)Nc1ccc2c(c1)C(=O)N([C@@H](C)CO)C[C@H](C)[C@@H](CN(C)C(=O)CCC(F)(F)F)OCCCC[C@@H](C)O2 is listed with rRNA inh HTS: -6.2; rRNA inh HTS OD600: -2.8; rRNA inh HTS RFP: -2.5
CO[C@H]1CN(C)C(=O)c2cc(NS(C)(=O)=O)ccc2OC[C@H](C)N(Cc2ccccn2)C[C@H]1C is listed with rRNA inh HTS: -1.4; rRNA inh HTS OD600: -3.2; rRNA inh HTS RFP: -1.5

Just rRNA inh HTS OD600, for two of the compounds above:
mol	rRNA inh HTS OD600
C[C@@H]1CN([C@H](C)CO)C(=O)c2cc(NS(=O)(=O)c3cn(C)cn3)ccc2O[C@@H]1CN(C)S(=O)(=O)c1cn(C)cn1	4.0
CCC(=O)N1C[C@@H](C)[C@@H](OC)CN(C)C(=O)c2ccc(NC(=O)C3CCOCC3)cc2OC[C@H]1C	-10.2
